# BJeLR viability: MLPCN primary cell-based screen for lethality selective to Ras in HRASV12 cells | BJeLR (HRASV12) viability, CellTiter-Glo ATP luminescence, 48 h; reference of the scale not given here | inhibition, % (no concentration beside the values) | 0.17% of 300,000 active | AID 1554, 2009;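 active = replicate mean above 50%; inconclusive = above 50% but judged a plate artefact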;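 note: 50 nL library stock added to about 25 µL; numbers are from one replicate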
# Autofluor counter: compound fluorescence in toxin protease inhibitor counterscreen; fluorescence intensity (test concentration not listed); compound autofluorescence counterscreen, microsphere flow cytometry; hits give high values; 3.1% of 360,000 active;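 active = at least 3 SD above the mean of all compounds, about 16000 in these data; inconclusive = too few beads counted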;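 note: 100 nL of 1 mM stock went into each well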
# ugtP null kill: growth inhibition of ugtP-null S. aureus, primary screen, RN4220 ugtP deletion, OD600; 16 h; some inactives read as strong as hits; growth inhibition, % (no concentration beside the values); 0.54% of 330,000 active;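 active = z-score under -3 and OD600 up to 0.15 on both plates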;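 note: plate controls were untreated wells for no effect and antibiotic for full effect; wells of about 80 µL received 100 nL stock; the first replicate is given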
# PrP UTR inh: inhibition of PrP 5' UTR reporter expression. cell-based PrP 5' UTR mRNA reporter, plate reader. inhibition, % (no concentration beside the values). 0.35% of 340,000 active;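 active = every replicate at 50% or more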;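 note: 0 = median of the neutral control wells; tested in H4 reporter cells; numbers are from one replicate; inactives centre near -14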
# RN4220 kill: growth inhibition of S. aureus RN4220, primary screen, OD600. 0.33% of 330,000 active. 16 h. AID 1259311, 2017. inhibition, % (test concentration not listed);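 active = z-score of -3 or lower and OD600 up to 0.18 on both plates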;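 note: plate controls were untreated cells for no effect and reference antibiotic for full effect; stock transfer was 100 nL into about 80 µL; one replicate is shown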
# Mtb hypoxia rep: PubChem AID 1159583. M. tuberculosis hypoxia-regulated fluorescent reporter, fluorescence. 0.1% of 300,000 active. fluorescence inhibition, % (no concentration beside the values);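 active = 35 to 45% if threefold the growth effect, above 45% if 1.5-fold the growth effect; inactive = the rest, general growth blockers included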;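 note: wells of about 50 µL received 100 nL stock; 0% = vehicle wells and 100% = reference inhibitor wells; whole bacteria with a GFP reporter of the hypoxia response; strong numbers were not always called active; many hits fall short of the cut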
# Mtb hypoxia rep growth: recorded beside Mtb hypoxia rep, whose call it bears; growth inhibition, %; measured here: M. tuberculosis growth (absorbance);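 0% = vehicle and 100% = reference antibiotic; read after six days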
# * marks the source's active call; other numbers are inactive results; ? = inconclusive; . = no result given.
no.	compound	BJeLR viability	Autofluor counter	ugtP null kill	PrP UTR inh
1	Fc1ccccc1-c1csc(=Nc2cccnc2)n1CCCn1ccnc1	3	2440	-9	-57
2	COc1ccccc1C(=O)COC(=O)CCNS(=O)(=O)c1ccc(C)c(C)c1	-7	?	2	-3
3	O=C(CC1NC(=O)NC1=O)NC1(C(=O)NC2CCCCC2)CCCCC1 (stereo unspecified)	7	5237	3	-22
4	O=S(=O)(c1ccccc1)c1nc(Nc2ccccc2N2CCOCC2)sc1Cl	-10	6698	-11	-29
5	COc1ccc(C(NC(=O)N2CC(C)OC(C)C2)C(Cl)(Cl)Cl)cc1F (stereo unspecified)	15	2678	-1	-4
6	CCOC(=O)N1CCN(C(=O)Cc2ccccc2OC)CC1	8	3769	-1	-12
7	Cc1ccccc1-n1nc2c(c1NC(=O)c1ccc(S(=O)(=O)N(C)C)cc1)CSC2	-7	7082	13	-23
8	CC1CC(=O)Nc2ccccc2N1S(=O)(=O)c1ccccc1 (stereo unspecified)	5	4220	1	-27
9	CC(=NNC(=O)c1cccc(S(=O)(=O)N2CCCC2)c1)c1cccs1	.	.	4	.
10	CC(=O)Nc1cccc(/C(C)=N/NC(=O)c2ccc(CN3CCOCC3)cc2)c1	-4	4273	.	-35
11	O=S(=O)(NC1CCCC1)c1ccc(S(=O)(=O)N2CCN(c3ccccc3)CC2)cc1	-2	6093	-1	-25
12	Cc1cc2c(c(=O)n1CC1CCCO1)C(c1ccc3c(c1)OCO3)C(C#N)=C(N)O2 (stereo unspecified)	-4	2417	2	2
13	Cc1noc(/C=C/c2ccco2)c1S(=O)(=O)N1CCC(C(=O)N(C)Cc2ccccc2)CC1	4	11697	-3	-18
14	CN(c1ccccc1C(=O)Nc1ccc(CC#N)cc1)S(=O)(=O)c1ccccc1	0	4100	7	5
15	Clc1ccc(OCCCn2cncn2)cc1Cl	1	4103	9	-4

no.	RN4220 kill	Mtb hypoxia rep	Mtb hypoxia rep growth
1	9.7	-8	6
2	0.5	3	-7
3	3.0	.	.
4	10	2	6
5	2.7	0	-4
6	-5.4	0	8
7	12	0	-1
8	8.4	4	1
9	0.4	11	-4
10	.	.	.
11	2.5	7	11
12	16	-6	3
13	-6.6	-10	6
14	2.3	13	2
15	7.3	12	6

# More results follow:
no.	compound	BJeLR viability	Autofluor counter	ugtP null kill	PrP UTR inh
16	CC1CCN(S(=O)(=O)c2ccc(C(=O)NCc3ccc4c(c3)OCO4)cc2)CC1	-7	7994	8	0
17	Cc1cccc(C(=O)Nc2ccc(C(=O)/C=C/c3cccs3)cc2)c1	-5	3917	-6	-12
18	Fc1ccccc1-c1nc(-c2ccncc2)no1	2	3855	.	-85
19	CC=C(C(=CC)c1ccc(O)cc1)c1ccc(O)cc1	.	.	-21	.
20	C[C@@H]1CN([C@H](C)CO)C(=O)c2cc(NC(=O)Nc3ccc(C(F)(F)F)cc3)ccc2O[C@H]1CN(C)Cc1ccc(Cl)c(Cl)c1	.	4010	-15	24
21	O=C(Cn1nc(C(=O)O)c2ccccc2c1=O)NCC1CCCO1 (stereo unspecified)	-2	2572	-2	-10
22	Cc1cccc(/C=N/Nc2cc(N3CCOCC3)nc(N3CCOCC3)n2)c1	-15	1903	.	8
23	CC(=O)c1ccc(OCCCCOc2ccc(C(C)=O)cc2)cc1	-2	3781	3	-13
24	Cc1ccc(OCC(=O)N/N=C\c2ccc(C)o2)c([N+](=O)[O-])c1	1	2673	.	-5
25	CC(=O)NN=Cc1cc(C)n(-c2ccc(Br)cc2)c1C	.	.	-1	.
26	Clc1ccc(/C=N/c2c(-c3ccco3)nc3ccccn23)cc1	5	9419	.	-43
27	COc1ccc(C2=NS(=O)(=O)N(C)C(C(=O)NC(C)c3ccccc3)=C2)cc1 (stereo unspecified)	-2	5517	-6	-13
28	COc1ccc(CN2C(=O)CS(=O)CC2=O)cc1OC	-2	6373	0	7
29	CNC(=S)N(Cc1cccs1)Cc1cc2cc(OC)c(OC)cc2[nH]c1=O	-9	2045	2	-14
30	CCNC(=S)NNC(=O)c1csc2ccccc12	4	11302	-14	-23

no.	RN4220 kill	Mtb hypoxia rep	Mtb hypoxia rep growth
16	6.8	3	1
17	-8.9	1	15
18	.	.	.
19	-8.2	0	0
20	57	3	1
21	3.1	10	8
22	.	.	.
23	0.3	5	4
24	.	.	.
25	-2.5	17	11
26	.	.	.
27	-9.4	6	5
28	0.4	0	5
29	5.8	-5	1
30	0.2	4	12

# Continuation:
no.	compound	BJeLR viability	Autofluor counter	ugtP null kill	PrP UTR inh
31	Cc1ccc2[nH]c(=O)c(CN(CCCN3CCOCC3)Cc3nnnn3C3CCCC3)cc2c1	-3	6796	2	-12
32	COC(=O)c1ccc(C)c(NC(=O)CCn2[nH]c(=O)ccc2=O)c1	.	3648	4	-8
33	COc1ccc(CN2CCN(Cc3cccc(OC)c3)C(CCO)C2)cc1 (stereo unspecified)	3	4285	1	-15
34	CC(=O)N1CCN(S(=O)(=O)c2cccc(C(=O)OCC(=O)N3CC(=O)Nc4ccccc43)c2)CC1	4	4574	7	-9
35	COCCCNC(=S)N1CCCC(c2nc3cc(C)c(C)cc3[nH]2)C1 (stereo unspecified)	-1	4209	11	26
36	CC(C)c1ccc(CCNC(=O)c2ccc([N+](=O)[O-])cc2)cc1	1	2364	0	-13
37	CCn1c(=O)n(CC)c2cc(NC(=O)CSc3ccc([N+](=O)[O-])cn3)ccc21	4	4231	12	-1
38	CSCC[C@H](NC(=O)C(C)Oc1ccc(Cl)cc1)c1nc2ccccc2[nH]1 (stereo partly specified)	4	2150	-9	-22
39	CCN(CC)S(=O)(=O)c1cc(C(=O)Nc2cc(C)on2)c(Cl)cc1Cl	-4	3322	14	-7
40	CN(C(=O)c1ccc(Cl)c(S(=O)(=O)N2CCOCC2)c1)c1ccccc1C(=O)O	4	9972	13	-32
41	COC(=O)c1cc(NC(=O)Nc2cc(OC)ccc2OC)cc(C(=O)OC)c1	1	23932*	-12	26
42	CCOC(=O)Nc1cc(C(=O)OC)ccc1C	1	?	6	13
43	O=C(O)c1ccccc1NC(=O)c1cc2ccccc2oc1=O	1	4249	-3	5
44	O=C(NNC(=S)Nc1cccc(C(F)(F)F)c1)c1cccc(Cl)c1	6	2582	54	-17
45	CC1CCN(S(=O)(=O)c2ccc3c(c2)oc(=O)n3CC(=O)NCc2ccc3c(c2)OCO3)CC1	7	4415	10	-15

no.	RN4220 kill	Mtb hypoxia rep	Mtb hypoxia rep growth
31	6.2	3	1
32	4.9	9	3
33	5.2	9	10
34	0.4	12	5
35	1.8	-3	2
36	-8.4	9	13
37	11	-8	-23
38	-1.1	10	8
39	2.9	12	0
40	5.1	5	4
41	4.5	13	9
42	2.5	-7	-4
43	3.7	-5	5
44	63	-5	-6
45	-1.5	6	0

# Next part
no.	compound	BJeLR viability	Autofluor counter	ugtP null kill	PrP UTR inh
46	COc1ccc(-c2nc(C)c(C(C)=O)n2O)cc1	1	5436	-2	-20
47	CCc1ccccc1NC(=O)CNC(=O)c1cn(Cc2ccccc2)nc1-c1cccnc1	.	?	3	-8
48	Cc1ccc(OCCC(=O)Nc2ccc(S(=O)(=O)N3CCCC3)cc2)cc1	.	3749	5	-25
49	CCOC(=O)N1CCN(C(=O)c2ccc3c(=O)n4c(nc3c2)CCCCC4)CC1	-3	.	3	.
50	Cc1nn(Cc2ccc(Cl)cc2)c(Cl)c1C=NNC(=O)CNc1ccccc1F	.	.	-20	.
51	Cc1ccc(NCc2nc3ccccc3n2C)cc1C	7	3873	9	-82
52	CC(=O)c1cccc(N(CC(=O)Nc2cc(C)cc(C)c2)S(C)(=O)=O)c1	0	3723	-9	-20
53	CCOC(=O)N1CCN(C(=O)CSCC(=O)Nc2nc(-c3ccc4c(c3)OCO4)cs2)CC1	.	19205*	9	-3
54	CSc1ncccc1C(=O)OCC(=O)Nc1ccc(S(=O)(=O)N2CCCC2)cc1	15	2024	-4	-1
55	CCOc1ccc(S(=O)(=O)NCCc2cn3ccccc3n2)cc1	9	4137	-2	-9
56	CCN(CC)C(=O)c1ccc(NC(=O)c2c(C)noc2C)cc1	.	3770	7	2
57	N=c1sccn1CC(=O)Nc1ccc(Cl)cc1[N+](=O)[O-]	-14	5803	1	-6
58	COc1ccc(OC)c(S(=O)(=O)Nc2ccccc2O)c1	1	6418	13	-18
59	CN(C)C=Nc1[nH]ncc1C#N	.	.	3	.
60	COc1ccc(NC(=O)CSc2nccn2C)c([N+](=O)[O-])c1	0	4661	-6	-40

no.	RN4220 kill	Mtb hypoxia rep	Mtb hypoxia rep growth
46	2.4	0	1
47	3.7	13	5
48	-0.4	10	8
49	1.6	5	5
50	-1.2	6	6
51	-4.3	6	15
52	0.5	-1	17
53	0.1	4	11
54	2.6	-2	9
55	0.8	4	1
56	2.0	9	-6
57	2.1	12	11
58	6.5	20	2
59	3.4	1	9
60	4.7	10	3

# From no. 46 up to 51, copied from above:
no.	compound	BJeLR viability	Autofluor counter	ugtP null kill	PrP UTR inh
46	COc1ccc(-c2nc(C)c(C(C)=O)n2O)cc1	1	5436	-2	-20
47	CCc1ccccc1NC(=O)CNC(=O)c1cn(Cc2ccccc2)nc1-c1cccnc1	.	?	3	-8
48	Cc1ccc(OCCC(=O)Nc2ccc(S(=O)(=O)N3CCCC3)cc2)cc1	.	3749	5	-25
49	CCOC(=O)N1CCN(C(=O)c2ccc3c(=O)n4c(nc3c2)CCCCC4)CC1	-3	.	3	.
50	Cc1nn(Cc2ccc(Cl)cc2)c(Cl)c1C=NNC(=O)CNc1ccccc1F	.	.	-20	.
51	Cc1ccc(NCc2nc3ccccc3n2C)cc1C	7	3873	9	-82

no.	RN4220 kill	Mtb hypoxia rep	Mtb hypoxia rep growth
46	2.4	0	1
47	3.7	13	5
48	-0.4	10	8
49	1.6	5	5
50	-1.2	6	6
51	-4.3	6	15

# (list continues)
no.	compound	BJeLR viability	Autofluor counter	ugtP null kill	PrP UTR inh
61	CC(=O)N1CCN(c2ccc(NCc3ccccc3)cc2)CC1	-21	4170	0	-13
62	CN(C)NC1CC(=O)N(c2ccccc2)C1=O (stereo unspecified)	-6	3388	6	11
63	Cc1ccccc1CS(=O)(=O)c1cn(CC(=O)N2CCOCC2)c2ccccc12	-7	5016	3	-23
64	COc1ccccc1OCC(=O)Nc1ccccc1C(=O)Nc1cccc(C(=O)O)c1	3	5697	.	-1
65	O=C(NC1CCCCCCC1)c1cc(F)c(F)cc1Cl	1	2712	3	-56
66	Cc1c(NC(=O)Nc2ccc(Cl)cc2Cl)c(=O)n(-c2ccccc2)n1C	4	4246	15	-26
67	CCOc1ccc(N(CC(=O)Nc2c(C)n(C)n(-c3ccccc3)c2=O)S(=O)(=O)c2ccccc2)cc1	-11	3237	6	-18
68	COc1ccc2c(c1)c(C(=O)N/N=C/c1cccc(Br)c1)c(C)n2C	-1	3946	.	-4
69	CC(O)CNc1nc2c(c(=O)n(C)c(=O)n2C)n1Cc1cccc(C(F)(F)F)c1 (stereo unspecified)	7	6101	0	-20
70	C#CCOCCOCCOCCNc1nc(N2CCN(C(=O)[C@H](CO)n3cc([C@@H](N)C(C)C)nn3)CC2)nc(N2CCN(C(=O)[C@H](CCC(=O)O)n3cc([C@@H](N)[C@H](C)CC)nn3)CC2)n1	.	3680	0	-3
71	COc1ccc(NC(=O)COn2nnc3ccc(Cl)cc32)cc1OC	-6	11413	-5	-16
72	CCC(C)C(=O)Nc1cc(C(=O)OC)cc(C(=O)OC)c1 (stereo unspecified)	11	8722	-3	1
73	CCn1c(-c2csc3c2CCC(C)C3)n[nH]c1=S (stereo unspecified)	-14	2298	4	-30
74	CCc1ccc(NC(=O)CN2C(=O)CC(C)S(=O)(=O)c3ccccc32)cc1 (stereo unspecified)	7	6385	2	-14

no.	RN4220 kill	Mtb hypoxia rep	Mtb hypoxia rep growth
61	2.6	9	16
62	3.3	9	10
63	5.2	11	4
64	.	.	.
65	8.0	24	12
66	3.2	6	7
67	0.7	0	-3
68	.	.	.
69	2.1	5	6
70	0.2	-2	2
71	2.3	15	9
72	0.8	-2	9
73	6.2	7	14
74	2.1	2	5

# Bioassay records: PubChem BioAssay, several laboratories

# Not a hit list; 4% or so of the library scored in one or more.
